D2 agonist – human D2 receptor agonism in beta-arrestin assay. DiscoveRx PathHunter D2 beta-arrestin, luminescence, 90 min; 100% = 57 uM dopamine signal. 360,000 tested, 0.084% active. AID 624465. activation, % (concentration not given with the values); in the data active = activation above about 40%; inconclusive = about 15% to 40%; inactive = below about 15%; also: compound concentration not given in the record; the text of the record calls up to 30% inactive
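Agonist mode: compounds alone added to overnight-plated D2 PathHunter cells for 90 min at 37 C, with 57 uM final dopamine (EC100) defining full response. Beta-arrestin recruitment detected by chemiluminescent reagent, read after 1 h at ambient temperature.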
gsp antagonist – gsp mutant antagonism | 340,000 tested, 0.4% active | gsp-mutant cells, cAMP HTRF, 30 min; control for the full effect not named in the record | AID 624288 | Potency, µM (highest dose often 76.9 µM), without a hit: at the top dose activity change, negative = inhibition, actives largely listed as inhibitors; active = falling curve of any shape with a large fitted effect; inconclusive = falling curve, mostly with a smaller effect; inactive = flat or rising curve; cell line not stated here;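 also: intracellular cAMP measured with PDE inhibitor Ro 20-1724 present during compound exposure; potency is read from the fitted curve at half-maximal effect; % is scaled to controls: 0 for no effect and ±100 for the full control effect; nearly all actives have a fitted effect of over 65% in size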
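Cells in G418 medium, seeded 16-24 h, 37C; buffer exchange to DPBS + 1 mM CaCl2, 0.5 mM MgCl2, 0.05% BSA; cpds in DMSO + […] (300 uM stock), 30 min 37C; HTRF cAMP detection.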
CtBP-E1A inh – CtBP/E1A binding inhibition; activity change, % (no concentration beside the values); 340,000 tested, 0.49% active; AlphaScreen GST-E1A/His-CtBP binding, 1536-well; hits give low values; control for the full effect not named in the record; in the data active means activity change below about -65%; inconclusive means about -30% to -65%; inactive means above about -30%; also: % is scaled to controls: 0 for no effect and ±100 for the full control effect; compound concentration not given in the record
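Steps: dispense buffer (Tris pH 8.0, NaCl 300 mM, TCEP 1 mM, BSA, Tween 20); add 5X protein mix (GST-E1A, His-CtBP, 125 nM each); pin 23 nL compound; 2 h at 37 °C, dark; add 5X beads (50 ug/mL); 1 h; read.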
D2 PAM – human D2 receptor positive allosteric modulation; DiscoveRx D2 beta-arrestin cells, luminescence, 90 min; 100% = 57 uM dopamine signal; P14416; potentiation, % (concentration not given with the values); AID 624464; 360,000 tested, 0.23% active; active = potentiation of 50% or more; inconclusive = 30% to 50%; inactive = 30% or less;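 also: compound concentration not given in the record; tested on top of an EC20 dose of dopamine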
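D2 cells co-treated with compound plus 50 nM dopamine (EC20) for 90 min at 37 deg C to detect potentiation. Beta-arrestin recruitment was read as enzyme-fragment luminescence after 1 h at ambient temperature. Full response was set by 57 uM dopamine.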
Six1-Eya2 inh – Six1/Eya2 interaction inhibition | 360,000 tested, 0.56% active | AID 651725 | AlphaScreen GST-Six1/His-Eya2 binding, biochemical; hits give low values; control for the full effect not named in the record | activity change, % (test concentration not listed); in the data active = activity change below about -65%; inconclusive = about -30% to -65%; inactive = above about -30%; also: % is scaled to controls: 0 for no effect and ±100 for the full control effect; compound concentration not given in the record
Target sequence (O00167 whole entry, looked up): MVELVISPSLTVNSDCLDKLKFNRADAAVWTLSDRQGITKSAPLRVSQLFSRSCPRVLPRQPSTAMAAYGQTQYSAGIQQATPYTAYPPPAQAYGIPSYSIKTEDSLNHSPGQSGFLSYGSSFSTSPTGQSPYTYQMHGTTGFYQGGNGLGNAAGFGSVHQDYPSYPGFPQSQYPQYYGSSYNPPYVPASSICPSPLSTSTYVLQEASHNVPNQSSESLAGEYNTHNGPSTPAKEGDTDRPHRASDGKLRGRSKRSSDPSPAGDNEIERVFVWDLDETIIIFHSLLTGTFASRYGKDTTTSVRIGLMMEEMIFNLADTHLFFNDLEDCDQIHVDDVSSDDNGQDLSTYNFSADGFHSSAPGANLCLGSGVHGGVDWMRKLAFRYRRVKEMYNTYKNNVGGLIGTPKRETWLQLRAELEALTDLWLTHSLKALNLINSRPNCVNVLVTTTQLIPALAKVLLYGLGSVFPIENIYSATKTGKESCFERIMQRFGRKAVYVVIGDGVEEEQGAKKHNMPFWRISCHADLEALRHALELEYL
Target sequence (Q15475 whole entry, looked up): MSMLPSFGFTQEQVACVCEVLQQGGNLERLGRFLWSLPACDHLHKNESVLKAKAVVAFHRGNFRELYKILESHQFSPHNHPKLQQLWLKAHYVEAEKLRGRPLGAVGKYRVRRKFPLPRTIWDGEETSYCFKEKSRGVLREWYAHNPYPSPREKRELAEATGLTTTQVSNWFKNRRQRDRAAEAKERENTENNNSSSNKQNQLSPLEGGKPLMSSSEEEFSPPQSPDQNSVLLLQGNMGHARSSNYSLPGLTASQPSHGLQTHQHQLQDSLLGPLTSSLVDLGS
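AlphaScreen with GST-Six1 and His-Eya2 (5X mix: 250 nM and 500 nM), glutathione donor and nickel acceptor beads; buffer 50 mM Tris pH 8.0, 300 mM NaCl, 1 mM TCEP; 1 h at 37 C in the dark.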
gsp ag – gsp mutant agonism; gsp mutant cells, cAMP HTRF, 30 min; control for the full effect not named in the record; Potency, µM (series often up to 76.9 µM), for the others: top-dose activation (cAMP increase), usual class: activators; 340,000 tested, 0.13% active; active = well fitted activation curve with a large enough effect; inconclusive = small, poorly fitted or top-dose-only effect, or another doubt; inactive = no such curve, though single readings can be large or run the other way; cell line not stated here;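 also: phosphodiesterase inhibitor Ro 20-1724 added with compounds to block cAMP breakdown; potency is read from the fitted curve at half-maximal effect; nearly all actives have a fitted effect of over 60% in size; about a fifth of the inactives were tested at one dose only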
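Cells stably selected in G418 were plated at 2000/well, grown 16-24 hr, then given compounds in DMSO with the PDE inhibitor […] (300 uM solution added) for 30 min at 37C; cAMP was read by HTRF.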
Numbers without * were called inactive; u = inconclusive; x = no result given; [ ] = another dose, or the depositor's remark.

SMILES	D2 agonist	gsp antagonist	CtBP-E1A inh	D2 PAM	Six1-Eya2 inh	gsp ag
Cc1ccc(NC(=O)c2ccc(NCc3ccc(F)cc3)nc2)cc1	-1.3	4%	5	-2	0	13%[15.4 µM]
C[n+]1c2n(c3ccccc31)N=C(c1ccc(-c3ccccc3)cc1)CS2	-3.0	10%	x	12	-6	-21%
COc1ccc(OC)c(/C=N/NC(=O)C(=O)N/N=C/c2cc(OC)ccc2OC)c1	-2.3	4%	-1	1	-2	13%
Nc1nc(SCc2ccc(Cl)cc2)[nH]c(=O)c1-c1ccccc1	0.4	15%	-2	-10	2	u
CC(=O)N1N=C(c2ccc(Cl)cc2)CC1c1ccc([N+](=O)[O-])cc1 (stereo not drawn)	3.5	-10%	-14	5	0	-76%[inhibitor]
CN(C)/C=N/c1cc(=O)n(C)c(=O)n1CC1CC1	-5.3	-5%	2	-3	-9	u
CN(CC(=O)Nc1cccc(F)c1)C(=O)c1cccc(-n2cccc2)c1	0.3	11%	-2	-2	u	-16%[15.4 µM]
O=C(Cn1cc(/C=N/O)c2ccccc21)N1CCOCC1	-5.5	11%	11	-9	6	-20%
Cc1ccc(NC(=O)C2CC(=O)n3c(nc4ccccc43)N2)cc1Cl (stereo not drawn)	8.6	6%	2	14	9	-4%[15.4 µM]
COc1cc(NC(=O)c2ccccc2)c(OC)cc1NC(=O)Cc1ccc(C)cc1	8.1	3%	-2	2	1	-12%
O=C(COC(=O)c1ccc2c(c1)OCCO2)NCc1ccccc1Cl	-3.3	8%	10	-2	-2	-7%
COc1cccc2c(C)cc(N3CCCCCC3)nc12	0.2	0%	x	-1	17	2%
C/C(=N\NC(=O)c1nnn(-c2nonc2N)c1-c1cccs1)c1cccnc1	-4.4	-1%	9	-6	1	-21%
Cc1cc(C)c(NC(=O)CNC(=O)COC(=O)C2CCN(c3ccc(C(F)(F)F)cn3)CC2)c(C)c1	-4.8	-18%	-2	1	3	18%[15.4 µM]
CN1CCN(C(=O)c2cnn(-c3ccccc3)c2NC(=O)c2ccccc2F)CC1	-1.0	8%	5	-38	4	-28%
O=C(NCc1nnc(SCC(=O)N2CCCC2)o1)c1ccccc1F	-2.9	-4%	9	-9	-2	-7%
COc1ccc(C(C(=O)NC2CCCC2)N(C(=O)c2csnn2)C2CCCC2)cc1 (stereo not drawn)	-1.1	-2%	-2	-3	-3	-8%
OCCN(CCO)c1ncnc2c1oc1ccc(Br)cc12	1.6	2%	-11	-8	-1	u
CN(CC(=O)Nc1cccc(S(=O)(=O)N2CCCCC2)c1)Cc1ccc(F)cc1	-0.5	u	x	-15	-10	17%
COc1ccc(C(CNC(=O)c2ccc(NS(=O)(=O)c3ccc(F)c(C)c3)cc2)N(C)C)cc1 (stereo not drawn)	-4.0	-4%	-5	-35	-1	-3%

Given bar-delimited: two of the compounds above
compound | D2 agonist | gsp antagonist | CtBP-E1A inh | D2 PAM | Six1-Eya2 inh | gsp ag
Cc1ccc(NC(=O)c2ccc(NCc3ccc(F)cc3)nc2)cc1 | -1.3 | 4% | 5 | -2 | 0 | 13%[15.4 µM]
CN(CC(=O)Nc1cccc(S(=O)(=O)N2CCCCC2)c1)Cc1ccc(F)cc1 | -0.5 | u | x | -15 | -10 | 17%

Additional entries follow:
SMILES	D2 agonist	gsp antagonist	CtBP-E1A inh	D2 PAM	Six1-Eya2 inh	gsp ag
COc1ccc(NC(=O)Cn2nnc3sc4c(c3c2=O)CC(C)(C)OC4)cc1	-3.0	-8%	7	-6	2	18%
Cc1cccn2cc(-c3cccc(NC(=O)c4cccs4)c3)nc12	3.7	u	-8	3	-1	-26%[15.4 µM]
COc1ccc(OC)c(CN2CCN(C(=O)c3ccc(NS(=O)(=O)c4cccc([N+](=O)[O-])c4)cc3)CC2)c1	0.2	u	8	1	-24	28%
COc1ccc2cc3cc(C(=O)NCCN4CCc5ccccc5C4)oc3nc2c1	-0.6	-27%	-28	-11	-25	-5%
COc1ccccc1-n1c(SCC(=O)N2CCOCC2)nc(O)c(Cc2ccccc2)c1=O	-3.1	-5%	-15	5	2	3%
COc1ccc(C2C3=C(CC(C)(C)CC3=O)Nc3n[nH]c(C)c32)cc1 (stereo not drawn)	-3.1	6%	4	-10	-7	8%
CCN(C(=O)CSc1nnc(C2CC2)n1-c1ccccc1)C1CCS(=O)(=O)C1 (stereo not drawn)	-3.9	6%	x	-2	1	26%
Cc1cc(S(=O)(=O)NC(C)C)ccc1OCC(=O)N1CCOCC1	-2.1	1%	1	-8	2	-47%
S=c1[nH]nc(COc2ccccc2)n1/N=C/c1cccs1	-3.3	-15%	13	-38	-2	26%
COc1cc(S(=O)(=O)N2CCN=C2c2ccccc2)ccc1Cl	0.0	20%	3	3	6	12%
Cc1ccc(-c2oc3ccccc3c(=O)c2OCC(=O)O)cc1	3.7	-20%	6	-7	11	-29%
Cc1nnc(SCC(=O)N(C)c2c(N)n(Cc3ccccc3)c(=O)[nH]c2=O)n1Cc1ccccc1	3.7	10%	-1	-3	3	29%
CCC(C)Nc1nc(SC(C(C)=O)C(C)=O)nc(N(C)C)n1 (stereo not drawn)	-4.3	-3%	-2	-10	-10	-36%[inhibitor]
CN(C)c1ccc(N2C(=NC(=O)C3CCCO3)SC3CS(=O)(=O)CC32)cc1 (stereo not drawn)	-0.9	-3%	2	1	3	u
CCNC(=O)NC(=O)COC(=O)c1ccccc1SCC(=O)NC(=O)NCC	5.1	-15%	-1	12	4	2%
CCn1c2ccccc2c2cc(CC(N)=O)ccc21	4.8	-10%	x	1	1	12%
CCc1ccc(-c2cc(C)no2)cc1S(=O)(=O)Nc1cc(C)on1	-3.1	-37%	0	0	-2	16%
COc1ccc(C(=O)NCc2nnc(SCC(=O)N3CCCCC3)o2)cc1	-4.5	15%	0	-11	7	11%[15.4 µM]
O=C1c2ccccc2NC(c2ccccc2)N1c1ccc(O)cc1 (stereo not drawn)	-1.3	-9%	8	4	-2	8%
CN(CC(=O)Nc1cccc(F)c1)C(=O)c1ccc2c(=O)n3c(nc2c1)CCC3	-1.7	13%	-2	1	-1	-38%[inhibitor]
CC(=O)c1cccc(S(=O)(=O)N2CCC(C(=O)O)(c3ccccc3)CC2)c1	-2.7	4%	15	-1	7	-17%
CCc1ccccc1NC(=O)Nc1cnccn1	0.0	2%	0	-9	-2	u
Cc1ccc(OCC(=O)N(Cc2ccccc2)C(C)C)c([N+](=O)[O-])n1	0.5	1%	0	-15	-11	-54%
O=C(Nc1ccc(Cl)cc1)Nn1cnc2ccccc2c1=O	-0.1	10%	6	0	2	21%[15.4 µM]
COc1ccc(NS(=O)(=O)c2ccc(C)c(C(=O)NCCCn3ccnc3)c2)cc1	-3.4	x	0	-6	-1	-136%[inhibitor]
O=C(CN1C(=O)C2(OCCCO2)c2ccccc21)NCc1ccccc1	-1.4	-8%	8	-13	2	-57%[inhibitor]
COc1ccccc1C(=O)Nc1cc(C)ccc1NC(=O)c1ccco1	-3.1	-20%	-2	-9	-7	-28%
O=C(CC1NCCNC1=O)Nc1ccc2c(c1)OCCO2 (stereo not drawn)	2.1	3%	-1	-1	3	-19%
CC(C)N(C)C(=O)C(=O)c1cccn1-c1cccc(Cl)c1C#N	-0.2	8%	x	-8	6	-20%
Cc1cc(OCC(=O)NCCc2ccc(Cl)cc2)c2c(C)cc(=O)oc2c1	3.2	1%	-11	-6	4	26%
C#Cc1cccc(Nc2nc(NCCOC)nc3ccsc23)c1	-3.4	x	-1	-9	-6	x
Cc1cc(OC(C)C(=O)NCC(O)c2ccccc2)c2c(C)cc(=O)oc2c1 (stereo not drawn)	-0.2	2%	-5	-2	8	u
CCOc1cnc(-c2c(-c3c(Cl)cccc3Cl)noc2C)o1	0.1	-6%	-16	-2	-4	14%
CCOc1ccc(CCNC(=O)C(O)c2ccccc2)cc1 (stereo not drawn)	-1.1	13%	8	17	5	11%
Cc1cc(C)nc(NS(=O)(=O)c2ccc(N/C=C3\CCCC3=O)cc2)n1	-3.0	-6%	5	-4	13	-17%
O=C(CCN1CCN(CCO)CC1)Nc1ccccc1	-5.5	9%	-1	-4	6	-9%
O=[N+]([O-])c1ccccc1S(=O)(=O)N1CCN(Cc2ccsc2)CC1	3.5	-2%	-8	-6	-27	-58%[inhibitor]
COc1ccc(C(=O)N(CCc2ccccc2)Cc2ccccc2)c(OC)n1	-2.2	-14%	3	-4	7	u
O=C(N/N=C/c1ccc(OC(=O)c2ccc3c(c2)OCO3)cc1)c1cncc(Br)c1	-3.3	-15%	-3	27	11	-22%
CNC(=O)N(O)C1N(C)C(=O)N(CC(=O)OC)C1(C)C (stereo not drawn)	-0.1	8%	-2	8	2	-2%

Entries of single compounds, quoted from the list. Order of values: D2 agonist	gsp antagonist	CtBP-E1A inh	D2 PAM	Six1-Eya2 inh	gsp ag
`O=C(Nc1ccc(Cl)cc1)Nn1cnc2ccccc2c1=O` as listed: -0.1	10%	6	0	2	21%[15.4 µM]
`CC(C)N(C)C(=O)C(=O)c1cccn1-c1cccc(Cl)c1C#N` as listed: -0.2	8%	x	-8	6	-20%
`Cc1ccc(OCC(=O)N(Cc2ccccc2)C(C)C)c([N+](=O)[O-])n1` as listed: 0.5	1%	0	-15	-11	-54%
`Cc1cc(OC(C)C(=O)NCC(O)c2ccccc2)c2c(C)cc(=O)oc2c1` (stereo not drawn) as listed: -0.2	2%	-5	-2	8	u
`C#Cc1cccc(Nc2nc(NCCOC)nc3ccsc23)c1` as listed: -3.4	x	-1	-9	-6	x

The listing continues:
SMILES	D2 agonist	gsp antagonist	CtBP-E1A inh	D2 PAM	Six1-Eya2 inh	gsp ag
COc1ccc(N=C2NC(=O)CS2)c([N+](=O)[O-])c1	-0.3	-15%	x	-7	-2	0%
CC(C)c1nc2sc3c(SCCN(C)C)ncnc3c2c2c1CCC2	-3.8	1%	-12	-15	4	20%[15.4 µM]
CCn1c(NCc2ccccn2)nc2ccccc21	-0.2	3%	6	6	-2	-32%[inhibitor]
CCOc1ccccc1C=C1SC(=S)N(CC)C1=O	-0.8	0%	-6	1	-4	-9%
COc1cc2c(=O)n(Cc3ccco3)c(=O)n(CC(=O)c3ccc(Br)cc3)c2cc1OC	-2.8	1%	4	-26	-2	u
CNC(=O)CSc1nnc(-c2ccco2)n1-c1cccc(C)c1	2.2	4%	-2	-1	-10	0%[15.4 µM]
